PD-1 reverse act: reversal of PD-1 mediated T-cell inhibition; 29,000 tested, under 10 active; primary human CD4 T cells, PD-L1 beads, CellTiter-Glo 96 h; activation, % (concentration not given with the values);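 active means replicate mean of 50% or more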;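 further: 0% = median vehicle wells and 100% = positive control; 100 nL library stock added to about 50 µL; numbers are from one replicate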
YB-1 expression: YB-1 expression inhibition | AID 434959 | U2OS, qRT-PCR YB-1 vs CDIP delta delta Cp, 16 h; hits give high values; zero = DMSO, each unit about twofold | 30,000 compounds, 0.37% hits | delta delta Cp (YB-1 minus CDIP) (test concentration not listed);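 active means delta delta Cp rounded down to an integer at or above 3, about 3 SD of DMSO wells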;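 further: higher means less YB-1 transcript or more CDIP transcript relative to DMSO; stock transfer was 100 nL into about 100 µL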
Shh pathway inh: blocks Sonic Hedgehog signaling; Shh-LIGHT2 Gli-luciferase reporter, 30 h; inhibition, % (concentration not given with the values); 22,000 compounds, 2.1% hits;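 active means replicate mean of 65% or more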;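 further: pathway switched on by Shh-conditioned medium diluted 1 in 25 in low serum; 100 nL library stock added to about 40 µL; 0% = median of neutral wells and 100% = positive control level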
MITF inh: blocks MITF activity; TRPM1 promoter luciferase, luminescence, 24 h; inhibition, % (test concentration not listed); 37,000 compounds, 0.28% hits;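 active means most replicates at 85% or more, or half of them and the mean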;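 further: human melanocyte line stably carrying TRPM1 promoter luciferase reporter; 0% = vehicle wells and 100% = a positive control; the first replicate is given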
An asterisk follows results filed as active; · = no result given.

SMILES	PD-1 reverse act	YB-1 expression	Shh pathway inh	MITF inh
COc1ccc(S(=O)(=O)Nc2ccc3c(c2)CC(=O)N([C@H](C)CO)C[C@@H](C)[C@@H](CN(C)S(=O)(=O)c2cccs2)O3)cc1	-1.3	-0.57	·	-23
COC(=O)c1ccc(C2C(C(=O)c3cc4ccccc4o3)C(=O)C(=O)N2Cc2ccncc2)cc1 (stereo not drawn)	2.8	·	·	10
C[C@@H]1CN([C@H](C)CO)C(=O)c2cccc(NC(=O)CCCCCC(=O)Nc3ccccc3N)c2O[C@@H]1CN(C)C(=O)Nc1ccc(F)cc1	-0.5	-0.69	·	-20
O=C(NC(=S)Nc1cccc(-c2ccc(CO)o2)c1)c1cc2ccccc2o1	-1.5	·	·	-18
Cc1ccc(S(=O)(=O)Nc2ccc3c(c2)C(=O)N([C@H](C)CO)C[C@@H](C)[C@H](CN(C)C(=O)Nc2ccc(C(F)(F)F)cc2)O3)cc1	·	0.16	41	0
C[C@H]1CN([C@@H](C)CO)C(=O)c2cc(NS(=O)(=O)c3cn(C)cn3)ccc2O[C@@H]1CN(C)C	0.2	-0.35	21	2
Cc1cccc(Nc2nc(N)nc(CSc3nccc(C)n3)n2)c1	0.7	·	·	-28
Cc1ccc(S(=O)(=O)N(C)CC(=O)Nc2ccccc2Br)cc1	2.7	·	·	-5
C[C@H]1CN([C@@H](C)CO)C(=O)c2cc(NC(=O)C3CC3)ccc2O[C@@H]1CN(C)CC1CCCCC1	-0.2	0.012	·	2
COC(=O)c1ccc(NC(=O)COc2cccc3ccccc23)cc1	-0.6	0.24	48	16
C[C@@H]1CN([C@@H](C)CO)C(=O)c2cccc(NS(C)(=O)=O)c2O[C@@H]1CN(C)C(=O)Nc1ccc(C(F)(F)F)cc1	1.1	0.042	43	-4
C[C@@H]1CN([C@H](C)CO)C(=O)Cc2cc(NC(=O)NC3CCCCC3)ccc2O[C@@H]1CN(C)Cc1ccc(-c2ccccc2)cc1	-5.9	0.21	41	-3
Cc1ccc(S(=O)(=O)Nc2cccc3c2O[C@@H](CN(C)S(=O)(=O)c2ccc(F)cc2)[C@@H](C)CN([C@H](C)CO)C3=O)cc1	2.0	0.086	15	12
CC(C)NC(=O)Nc1cccc2c1O[C@@H](CN(C)Cc1ccc(C(=O)Nc3ccccc3N)cc1)[C@@H](C)CN([C@H](C)CO)C2=O	2.4	0.12	·	-5
COc1ccc(N(CC(=O)Nc2ccccc2C(=O)O)S(C)(=O)=O)cc1	0.3	·	·	2
C[C@@H]1CCCCO[C@H](CN(C)C(=O)Cc2ccccc2)[C@@H](C)CN([C@H](C)CO)C(=O)c2cc(NC(=O)Nc3ccccc3)ccc2O1	·	0.41	-7	8
C[C@@H]1CN([C@@H](C)CO)C(=O)c2cccc(NS(=O)(=O)c3ccc(Cl)cc3)c2O[C@H]1CN(C)C(=O)Nc1ccc(F)cc1	0.0	0.083	-55	7
C[C@@H]1CN([C@@H](C)CO)C(=O)c2cc(N(C)C)ccc2O[C@H]1CN(C)Cc1ccncc1	·	0.32	10	2
C[C@H](CO)N1C[C@H](C)[C@H](CN(C)S(=O)(=O)c2cn(C)cn2)Oc2ccc(NS(=O)(=O)c3ccc(F)cc3)cc2CC1=O	-1.7	0.19	63	0
CN(CC(=O)Nc1ccc(Nc2ccccc2)cc1)S(=O)(=O)c1cc(Cl)ccc1Cl	0.7	·	·	64
COc1ccc(S(=O)(=O)Nc2ccc3c(c2)C(=O)N([C@H](C)CO)C[C@H](C)[C@H](CN(C)S(=O)(=O)c2ccc(OC)cc2)O3)cc1	1.0	-0.18	·	-11
C[C@H]1CN([C@@H](C)CO)C(=O)Cc2cc(NC(=O)Nc3ccc(F)cc3)ccc2O[C@H]1CN(C)Cc1ccc(Cl)c(Cl)c1	·	0.36	4	26
C[C@H]1CN([C@@H](C)CO)C(=O)c2cccc(NS(C)(=O)=O)c2O[C@@H]1CN(C)C(=O)Nc1ccccc1	·	-0.18	30	-6
C[C@@H]1CN([C@@H](C)CO)C(=O)c2cc(NC(=O)CCN3CCOCC3)ccc2O[C@@H]1CN(C)C(=O)NC1CCCCC1	-1.3	-0.46	4	10
CC12CC(c3ccoc3)OC(=O)C1CCC1(C)C2C2OC(=O)C1(O)C1OC21 (stereo not drawn)	-1.6	1.3	-4	-3
C[C@@H]1CN([C@H](C)CO)C(=O)Cc2cc(NC(=O)Nc3ccc4c(c3)OCO4)ccc2O[C@H]1CN(C)Cc1ccc(-c2ccccc2)cc1	1.9	-0.35	-29	0
C[C@@H]1CN([C@@H](C)CO)C(=O)Cc2cc(NC(=O)NC3CCCCC3)ccc2O[C@@H]1CN(C)S(=O)(=O)c1cn(C)cn1	1.8	0.14	-24	7
CCOC(=O)c1c(CNC(C)C)oc2ccc(OC)cc12	0.3	10*	22	-6
COC(=O)c1ccc(Cl)c(NC(=O)CN(c2ccc(I)cc2)S(C)(=O)=O)c1	-0.6	·	·	22
COc1c(O[C@@H]2O[C@H](CO)[C@@H](O)[C@H](O)[C@H]2O)cc2c(c1OC)-c1ccc(SC)c(=O)cc1C(NC(C)=O)CC2 (stereo partly drawn)	1.0	0.46	-68	2
C[C@H](CO)N1C[C@H](C)[C@H](CN(C)C(=O)Nc2ccccc2)Oc2c(NC(=O)C3CC3)cccc2C1=O	0.0	-0.66	7	-1
C[C@@H]1CN([C@@H](C)CO)C(=O)c2cccc(NS(=O)(=O)c3ccc(Cl)cc3)c2O[C@H]1CN(C)Cc1ccc(C(=O)O)cc1	·	0.74	-41	-14
COc1ccc(CN(C)C[C@@H]2Oc3ccc(NS(C)(=O)=O)cc3CC(=O)N([C@H](C)CO)C[C@H]2C)cc1	0.9	-0.11	·	0
C[C@H]1CN([C@@H](C)CO)C(=O)Cc2cc(NS(C)(=O)=O)ccc2O[C@H]1CN(C)C(=O)NC1CCCCC1	·	0.13	-17	-12
CSC(SC)=C(C#N)C(=O)c1cccc(C(F)(F)F)c1	-2.3	-0.037	-6	11
Cc1cc(C(=O)Nc2cccc3c2O[C@H](CN(C)C(=O)Nc2ccccc2)[C@H](C)CN([C@H](C)CO)C3=O)n(C)n1	-5.6	-0.012	-89	-9
CN(C)CCC=C1c2ccccc2CCc2ccccc21	2.3	0.55	12	-3
C[C@H](CO)N1C[C@H](C)[C@H](CN(C)Cc2ccc(C(=O)O)cc2)Oc2c(NS(=O)(=O)c3ccccc3)cccc2C1=O	1.8	0.24	-5	11
Cc1noc(C)c1NC(=O)Nc1cccc2c1O[C@H](CN(C)Cc1ccccc1)[C@H](C)CN([C@@H](C)CO)C2=O	2.3	0.26	26	-10
Cc1cc(Cc2cccs2)c(=O)[nH]n1	-0.7	-1.1	-6	-7
Cc1noc(C)c1S(=O)(=O)N(C)C[C@@H]1Oc2ccc(NC(=O)Nc3ccc4c(c3)OCO4)cc2CC(=O)N([C@H](C)CO)C[C@@H]1C	1.8	-0.052	2	-15
CC(C)NC(=O)Nc1ccc2c(c1)C(=O)N([C@H](C)CO)C[C@@H](C)[C@@H](CN(C)Cc1ccc3c(c1)OCO3)O2	5.1	0.085	·	-19
C[C@@H]1CN([C@H](C)CO)C(=O)Cc2cc(NS(C)(=O)=O)ccc2O[C@@H]1CN(C)C(=O)NC1CCCCC1	1.2	-0.083	-18	-4
O=C(Nc1cccc2ccccc12)c1cc2ccccc2oc1=O	0.4	-0.47	·	-46
C[C@H]1CN([C@@H](C)CO)C(=O)Cc2cc(NC(=O)Nc3ccccc3)ccc2O[C@H]1CN(C)C(=O)Nc1ccccc1	0.7	-0.091	·	-18
CCOc1ccccc1C(=O)Nc1ccc(S(=O)(=O)Nc2nc(C)cc(C)n2)cc1	1.3	·	·	-11
COc1ccccc1NC(=O)CSc1nc2ccccc2o1	0.3	0.17	·	-5
Cc1noc(C)c1NC(=O)Nc1cccc2c1O[C@@H](CN(C)S(=O)(=O)c1ccc(Cl)cc1)[C@@H](C)CN([C@H](C)CO)C2=O	1.4	0.43	20	-2
O=C(Nc1c(F)cccc1F)C1CN(S(=O)(=O)c2ccccc2)CCN1S(=O)(=O)c1ccccc1 (stereo not drawn)	-0.4	·	·	-16
Cc1ccc(-n2nnnc2-c2cnn(-c3ccccc3)c2C)cc1	0.0	-0.27	89*	9
Cc1ccc2c(c1)c1nc3ccccc3nc1n2CC(=O)N(c1ccccc1)C(C)C	-2.2	·	·	10
COc1ccc(NC(=O)N(C)C[C@H]2Oc3c(NC(=O)Nc4ccccc4)cccc3C(=O)N([C@@H](C)CO)C[C@@H]2C)cc1	·	-0.33	-27	-11
C[C@@H]1CN([C@H](C)CO)C(=O)c2cc(NC(=O)C3CCCCC3)ccc2O[C@@H]1CN(C)S(=O)(=O)c1ccccc1	0.9	-0.26	-15	-2
C[C@H]1CN([C@@H](C)CO)C(=O)c2cc(NC(=O)CCCN(C)C)ccc2O[C@H]1CN(C)C	2.1	-0.27	4	3
C[C@@H]1CN([C@@H](C)CO)C(=O)c2cc(NC(=O)C3CCCCC3)ccc2O[C@H]1CN(C)S(=O)(=O)c1cn(C)cn1	0.5	0.28	-6	8
COC(=O)CSc1nnc(-c2sc3ccccc3c2Cl)n1-c1ccccc1	-0.8	·	·	-10
CSc1sc(NC(=O)N2CCOCC2)c(-c2ccc(Cl)cc2)c1C#N	-15	-0.13	23	6
O=C(O)CCC(=O)N1N=C(c2cccs2)CC1c1ccco1 (stereo not drawn)	0.0	·	·	-5
C[C@H]1CN([C@@H](C)CO)C(=O)Cc2cc(NC(=O)Cc3cn(C)c4ccccc34)ccc2O[C@H]1CN(C)Cc1ccc2c(c1)OCO2	-0.4	0.3	-14	3
CC(C)NC(=O)N(C)C[C@H]1Oc2c(NC(=O)c3ccncc3)cccc2C(=O)N([C@H](C)CO)C[C@@H]1C	2.8	-0.15	-30	-3

Sorted by length of the SMILES (high to low): some entries from above.
SMILES	PD-1 reverse act	YB-1 expression	Shh pathway inh	MITF inh
Cc1noc(C)c1S(=O)(=O)N(C)C[C@@H]1Oc2ccc(NC(=O)Nc3ccc4c(c3)OCO4)cc2CC(=O)N([C@H](C)CO)C[C@@H]1C	1.8	-0.052	2	-15
C[C@@H]1CN([C@H](C)CO)C(=O)Cc2cc(NC(=O)Nc3ccc4c(c3)OCO4)ccc2O[C@H]1CN(C)Cc1ccc(-c2ccccc2)cc1	1.9	-0.35	-29	0
C[C@@H]1CN([C@@H](C)CO)C(=O)c2cccc(NS(=O)(=O)c3ccc(Cl)cc3)c2O[C@H]1CN(C)C(=O)Nc1ccc(F)cc1	0.0	0.083	-55	7
C[C@@H]1CN([C@@H](C)CO)C(=O)c2cc(NC(=O)CCN3CCOCC3)ccc2O[C@@H]1CN(C)C(=O)NC1CCCCC1	-1.3	-0.46	4	10
C[C@H]1CN([C@@H](C)CO)C(=O)c2cccc(NS(C)(=O)=O)c2O[C@@H]1CN(C)C(=O)Nc1ccccc1	·	-0.18	30	-6
C[C@H]1CN([C@@H](C)CO)C(=O)c2cc(NC(=O)CCCN(C)C)ccc2O[C@H]1CN(C)C	2.1	-0.27	4	3
CCOc1ccccc1C(=O)Nc1ccc(S(=O)(=O)Nc2nc(C)cc(C)n2)cc1	1.3	·	·	-11
CN(C)CCC=C1c2ccccc2CCc2ccccc21	2.3	0.55	12	-3
Cc1cc(Cc2cccs2)c(=O)[nH]n1	-0.7	-1.1	-6	-7

Additional records.
SMILES	PD-1 reverse act	YB-1 expression	Shh pathway inh	MITF inh
CS(=O)(=O)c1ccc([C@@H](O)[C@@H](CF)NC(=O)C(Cl)Cl)cc1	2.3	-0.16	21	-3
C[C@@H]1CN([C@@H](C)CO)C(=O)c2cc(NC(=O)c3ccncc3)ccc2O[C@@H]1CN(C)S(=O)(=O)c1cn(C)cn1	·	-0.049	·	7
CNC[C@H]1Oc2ccc(NC(=O)Cc3cn(C)c4ccccc34)cc2CC(=O)N([C@H](C)CO)C[C@H]1C	·	0.24	-3	2
C[C@H]1CN([C@@H](C)CO)C(=O)c2cccc(NS(C)(=O)=O)c2O[C@@H]1CN(C)C(=O)Nc1cccc2ccccc12	2.4	0.23	0	-6
COc1ccc(S(=O)(=O)Nc2ccc3c(c2)C(=O)N([C@@H](C)CO)C[C@@H](C)[C@H](CN(C)C(=O)Nc2ccccc2)O3)cc1	-0.4	0.24	·	-3
COc1ccc(NC(=O)C(=O)NCc2cccnc2)cc1OC	-0.7	·	·	-21
CC(C)NC(=O)Nc1cccc2c1O[C@H](CN(C)Cc1ccc(-c3ccccc3)cc1)[C@H](C)CN([C@H](C)CO)C2=O	-1.8	-0.31	-73	-21
C[C@@H]1CN([C@@H](C)CO)C(=O)c2cc(NC(=O)CCC(F)(F)F)ccc2O[C@@H]1CN(C)Cc1ccc(C(=O)O)cc1	3.3	0.05	1	7
C[C@@H]1CN([C@H](C)CO)C(=O)Cc2cc(NC(=O)Cc3cn(C)c4ccccc34)ccc2O[C@H]1CN(C)C(=O)Nc1cccc2ccccc12	·	-0.13	-45	8
CCN(CC)CCN1Cc2c(sc(C)c2C)N(C(=O)c2ccccc2)C1	-0.5	-0.004	6	-7
COc1ccc(Br)cc1S(=O)(=O)Nc1ccc(Cl)cn1	0.1	·	·	6
C[C@@H]1CN([C@H](C)CO)C(=O)c2cc(NC(=O)Nc3cccc4ccccc34)ccc2O[C@@H]1CN(C)S(=O)(=O)c1ccc(Cl)cc1	·	-0.1	38	-9
FC(F)(F)c1ccccc1N=C1CCCc2ccccc21	-1.2	-0.56	-16	13

Source: PubChem (Broad Institute)

Not all compounds are listed. The share of hits here may be higher or lower than overall.
